Six1-Eya2 blk: inhibitors of human Six1/Eya2 interaction; AlphaScreen GST-Six1/His-Eya2 binding, biochemical; stronger effect = lower value; control for the full effect not named in the record; activity change, % (test concentration not listed); 360,000 tested, 0.56% active; in the data active = activity change below about -65%; inconclusive = about -30% to -65%; inactive = above about -30%; further: on the % scale 0 is the no-effect control and ±100 the full control effect; compound concentration not given in the record
Target sequence (O00167 whole entry, looked up): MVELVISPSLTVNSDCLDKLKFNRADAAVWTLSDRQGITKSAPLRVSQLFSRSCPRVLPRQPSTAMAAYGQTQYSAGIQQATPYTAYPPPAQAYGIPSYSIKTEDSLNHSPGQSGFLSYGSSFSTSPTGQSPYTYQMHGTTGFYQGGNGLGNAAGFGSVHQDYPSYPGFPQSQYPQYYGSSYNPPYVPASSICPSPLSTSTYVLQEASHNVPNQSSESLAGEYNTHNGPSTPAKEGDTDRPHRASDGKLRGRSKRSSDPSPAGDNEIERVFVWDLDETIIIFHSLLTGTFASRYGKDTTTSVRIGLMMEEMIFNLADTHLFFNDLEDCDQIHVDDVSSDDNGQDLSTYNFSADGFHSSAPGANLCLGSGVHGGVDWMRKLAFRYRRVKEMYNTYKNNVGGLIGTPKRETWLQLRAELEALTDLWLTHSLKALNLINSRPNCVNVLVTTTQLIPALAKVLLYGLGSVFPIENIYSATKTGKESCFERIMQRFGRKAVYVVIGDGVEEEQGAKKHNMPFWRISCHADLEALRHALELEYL
Target sequence (Q15475 whole entry, looked up): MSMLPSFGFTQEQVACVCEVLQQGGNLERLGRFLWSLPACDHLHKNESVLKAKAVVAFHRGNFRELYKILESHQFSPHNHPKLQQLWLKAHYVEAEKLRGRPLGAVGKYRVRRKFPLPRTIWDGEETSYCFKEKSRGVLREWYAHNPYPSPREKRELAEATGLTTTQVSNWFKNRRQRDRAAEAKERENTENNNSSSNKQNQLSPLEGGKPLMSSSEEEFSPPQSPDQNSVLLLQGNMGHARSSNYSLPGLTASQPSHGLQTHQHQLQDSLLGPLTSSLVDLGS
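AlphaScreen with GST-Six1 and His-Eya2 (5X mix: 250 nM and 500 nM), glutathione donor and nickel acceptor beads; buffer 50 mM Tris pH 8.0, 300 mM NaCl, 1 mM TCEP; 1 h at 37 C in the dark.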
TRPML1 blocker: human mucolipin-1 channel inhibition. activity change, negative = inhibition, % (no concentration beside the values). TRPML1-inducible cells, Ca2+ dye fluorescence, FDSS; stronger effect = lower value; inhibition of EC80 agonist-evoked calcium signal. AID 624415. Q9GZU1. 390,000 tested, 0.02% active; in the data active means activity change below about -50%; inconclusive means about -30% to -50%; inactive means above about -30%;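 further: stimulus is agonist 54-4 at its EC80 concentration; on the % scale 0 is the no-effect control and ±100 the full control effect; compound concentration not given in the record; the text of the record puts the active cut at -80%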
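Tet-induced TRPML1-DL cells loaded with Ca8 no-wash calcium dye were read kinetically on FDSS. Compound addition was followed by EC80 agonist 54-4 (4 uM final); inhibition was read over 110 s.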
D2 ag: activates the human D2 dopamine receptor; 360,000 tested, 0.084% active; DiscoveRx PathHunter D2 beta-arrestin, luminescence, 90 min; 100% = 57 uM dopamine signal; activation, % (test concentration not listed); in the data active = activation above about 40%; inconclusive = about 15% to 40%; inactive = below about 15%; further: compound concentration not given in the record; the text of the record calls up to 30% inactive
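Agonist mode: compounds alone added to overnight-plated D2 PathHunter cells for 90 min at 37 C, with 57 uM final dopamine (EC100) defining full response. Beta-arrestin recruitment detected by chemiluminescent reagent, read after 1 h at ambient temperature.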
PINK1 modulator: modulators of PINK1 expression. PINK1 immunofluorescence, high-content cytometry, 24 h. Potency, µM (highest dose often 76.6 µM), for inactives: at the highest dose activation (PINK1 increase), usual class: activators. 410,000 tested, 0.2% active. AID 624263; active = well fitted activation curve with a large enough effect; inconclusive = small, poorly fitted or top-dose-only effect; inactive = flat fitted curve, though single readings scatter; cell line not stated here;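 further: potency means the concentration at half of the fitted maximal effect; % of control where 0% means no effect; nearly all actives have a fitted effect of over 65% in size; a mitochondrial uncoupler was the plate control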
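Decision-based qHTS: stable cells, 24 h exposure to five compound concentrations, CCCP as control. Fixed cells stained for PINK1 plus nuclear, mitochondrial and cell markers, cytometer read.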
CtBP-E1A blk: CtBP/E1A binding inhibition; AlphaScreen GST-E1A/His-CtBP binding, 1536-well; stronger effect = lower value; control for the full effect not named in the record; activity change, % (test concentration not listed); 340,000 tested, 0.49% active; in the data active means activity change below about -65%; inconclusive means about -30% to -65%; inactive means above about -30%; further: on the % scale 0 is the no-effect control and ±100 the full control effect; compound concentration not given in the record
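Homogeneous bead-based format: GST-tagged E1A captured on glutathione donor beads, His-tagged CtBP on nickel acceptor beads; compounds precede bead addition by 2 h at 37 °C.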
TRPML1 agonist: activates the human TRPML1 channel | activation, % (no concentration beside the values) | 410,000 tested, 0.12% active | AID 624414 | TRPML1-expressing cells, Ca2+ dye fluorescence, FDSS; host cell line not named in the record; reference of the full effect not given here; in the data active = activation above about 50%; inconclusive = about 30% to 50%; inactive = below about 30%; further: 0% is about no effect; the text of the record puts the active cut at 80%
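Cells: TRPML1-DL, 1X Tet inducer, ~16 h at 37 degrees C/5% CO2. Dye: ABD Ca8 no-wash + quencher, 45-90 min RT. Read: 10 s baseline, compound add, 110 s agonist phase; 54-4 EC80 (4uM final), 110 s antagonist phase.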
Active calls of the source: *; ? = inconclusive; · = not tested or not shown; & = joins results of further samples; [ ] = dose if it differs, or a comment.

SMILES | Six1-Eya2 blk | TRPML1 blocker | D2 ag | PINK1 modulator | CtBP-E1A blk | TRPML1 agonist
CS(=O)(=O)c1sc(C(=O)NC(=S)Nc2ccc(OC(F)(F)F)cc2)c2c1C=CCC2 | -7.5 | -10.4 | -5.4 | ? | 5.9 | 1.1
CC(=O)c1csc(COc2ccc(Cl)cc2)n1 | 4.6 | 20.0 | -2.5 | 1.1% | 5.3 | 1.2
CC1=NN(C(=O)COc2ccccc2)C(O)(c2cccnc2)C1 (stereo not given) | 0.2 | -7.3 | -1.2 | -0.7% | · | 0.3
CN(Cc1ccccc1)c1nc2c(S(=O)(=O)c3cccc(Cl)c3)nnn2c2ccsc12 | · | -29.7 | · | -0.5% | · | 0.2
Cc1ccnc(NS(=O)(=O)c2ccc(N)cc2)n1 | 0.0 | -6.7 | -1.1 | 1.0% | 2.1 | -0.8
Cc1cc(C)c(C(=O)/C=C/c2ccco2)c(=O)[nH]1 | -8.0 | -11.5 | 4.8 | -0.1% | -3.0 | 0.0
CC(C)CN(CC(C)C)C(=O)C12CCC(C)(C(=O)C1)C2(C)C (stereo not given) | 4.7 | 10.6 | -0.7 | -1.9% | 9.0 | 2.2
OCCn1c(Cl)nc2ccccc21 | 1.2 | -6.8 | -2.3 | 0.5% | 2.8 | -0.3
CCCCn1nnnc1C(c1ccccc1)N1CCN(c2ncccc2C(F)(F)F)CC1 (stereo not given) | 9.4 | · | · | 2.3% | 1.6 | ?
COc1cc(C(=O)Nc2ccc3c(c2)OCCO3)ccc1OC(F)F | -0.6 | 35.8 | -4.3 | 7.6%[38.3 µM] | -0.7 | 3.0
O=C(COc1cccc(Cl)c1)Nc1nc(-c2ccc(S(=O)(=O)N3CCOCC3)cc2)cs1 | -14.1 | 11.1 | 1.5 | 2.5% | ? | 0.4
Cc1cccc(N2C(=O)N3[C@H](c4ccc(Br)cc4)[C@@H]4C(=O)N(C(C)(C)C)C(=O)[C@@H]4[C@]3(C)C2=O)c1 | -7.0 | 23.7 | -2.1 | 0.2% | 2.3 | 2.5

Random excerpt: two compounds from above, in no set order.
SMILES | Six1-Eya2 blk | TRPML1 blocker | D2 ag | PINK1 modulator | CtBP-E1A blk | TRPML1 agonist
CC(=O)c1csc(COc2ccc(Cl)cc2)n1 | 4.6 | 20.0 | -2.5 | 1.1% | 5.3 | 1.2
CC1=NN(C(=O)COc2ccccc2)C(O)(c2cccnc2)C1 (stereo not given) | 0.2 | -7.3 | -1.2 | -0.7% | · | 0.3

Other entries follow.
SMILES | Six1-Eya2 blk | TRPML1 blocker | D2 ag | PINK1 modulator | CtBP-E1A blk | TRPML1 agonist
COCCNC(=O)c1cn(C)c2ccc(S(=O)(=O)N3CCCCC3)cc2c1=O | 3.3 | -3.4 | -1.1 | -0.1% | · | 0.1
COc1ccc(NC(=O)c2c(NCc3cccc(OC)c3)sc3c2CCCC3)cc1 | · | -9.7 | · | 8.3% | · | 0.7
C/C(Cn1nc([N+](=O)[O-])cc1C)=N\NC(=O)c1ccc(O)cc1O | -16.9 | 15.7 | -1.2 | 2.7% | -10.3 | 0.0
CC(=O)c1ccccc1NC(=O)COC(=O)C1CCCN1S(=O)(=O)c1ccccc1F (stereo not given) | -0.1 | -1.7 | 5.8 | -0.9% | 5.8 | 0.4
COC(=O)c1ccc(-c2nc(CN3CCCN(C(=O)c4ccco4)CC3)c(C)o2)cc1 | -8.1 | 3.4 | 1.5 | 4.9% | 0.0 | -0.3
COc1cc(OC)cc(C(=O)NCC(c2cccs2)S(=O)(=O)c2ccc(F)c(C)c2)c1 (stereo not given) | · | 10.6 | · | -0.1% | · | 0.3
COc1cc(-c2ccc(N3C(c4ccsc4)=Cc4ccc(F)cc4C3c3c[nH]c4ccc(C#N)cc34)cc2)cc(OC)c1OC (stereo not given) | -0.8 | · | · | -0.4% | -1.8 | -0.1
Cc1ccc(OCC(=O)N2CCc3ccccc32)c([N+](=O)[O-])n1 | 10.0 | ? | -3.4 | 7.6% | -1.1 | -0.6
Cc1ccc(N=C/C(C(=O)C(F)(F)F)=C(\O)c2cccs2)cc1 | 9.4 | 3.7 | -4.5 | -0.5% | 6.9 | 2.6
O=C(Nc1ccon1)c1csc2ccccc12 | -2.0 | 3.0 | -1.7 | 3.7%[38.3 µM] | -4.2 | -0.3
CC1c2ccccc2SC(CCCN(C)C)c2ccccc21 (stereo not given) | -9.1 | -27.6 | -2.0 | 0.1% | -10.3 | 0.9
CCn1c(C)c(C)c2cc(C(=O)NCCN3CCOCC3)ccc21 | 1.1 | -11.3 | -6.7 | -1.4% | -11.2 | 0.3
CC(=O)Nc1ccc(NC(=O)CSc2nc(=O)n(Cc3cccnc3)c3c2CCC3)cc1 | 0.3 | -8.5 | -5.6 | 2.8% | -11.1 | -0.3
COc1cc(/C=C/C(=O)Nc2nnc(CC(C)C)s2)cc(OC)c1OC | 1.2 | -7.2 | -1.4 | ? | 9.9 | 0.1
Cc1ccccc1Nc1c(-c2cccnc2)nc2ccccn12 | -3.2 | · | 0.1 | 0.9% | -17.5 | ·
Cc1cc(Cl)c2oc(C(=O)N3CCOCC3)c(C)c2c1 | 0.1 | -1.7 | -1.9 | 1.1% | 0.8 | -0.2
COc1ccc(/C(C)=N/N=C(\C)c2ccc(OC)cc2OC)c(OC)c1 | 1.6 | 10.4 | 0.0 | 1.0% | 17.3 | -1.5
COc1ccccc1CN1[C@@H](CC(=O)O)c2ccccc2S1(=O)=O | 4.5 | -7.0 | -0.1 | -0.8% | 2.8 | -0.6&-0.1
C=CCn1cnnc1SCC(=O)NCC1COc2ccccc2O1 (stereo not given) | -4.2 | 9.7 | 3.9 | -1.6% | -17.4 | -0.6
CCOC(=O)C(=O)NNc1ccc(F)cc1 | -7.6 | 19.4 | -2.3 | 1.5% | 7.0 | -0.5
CCOc1ccc(NC(=S)NNC(=O)CC(C)O)cc1 (stereo not given) | 3.0 | 33.5 | -2.2 | 2.4% | 11.6 | 0.2
NC(=O)c1nsc(C(=O)N(CC(=O)NCc2ccccc2)c2ccc(F)cc2)c1N | 2.0 | -2.8 | -2.2 | 0.8% | 6.0 | 0.0
N=C1/C(=C\c2ccc(-c3cccc(Cl)c3)o2)C(=O)N=C2SC=C(c3ccccc3)N12 | -9.3 | -11.6 | -6.2 | 0.8% | -6.7 | 0.4
O=C(c1ccc(Cl)c(NC2=NC3CS(=O)(=O)CC3S2)c1)N1CCN(c2ccccc2)CC1 (stereo not given) | -0.3 | -14.7 | -2.6 | -0.2% | 0.7 | 0.2

Of the compounds above, these contain a nitro group on carbon:
SMILES | Six1-Eya2 blk | TRPML1 blocker | D2 ag | PINK1 modulator | CtBP-E1A blk | TRPML1 agonist
C/C(Cn1nc([N+](=O)[O-])cc1C)=N\NC(=O)c1ccc(O)cc1O | -16.9 | 15.7 | -1.2 | 2.7% | -10.3 | 0.0
Cc1ccc(OCC(=O)N2CCc3ccccc32)c([N+](=O)[O-])n1 | 10.0 | ? | -3.4 | 7.6% | -1.1 | -0.6

(next part)
SMILES | Six1-Eya2 blk | TRPML1 blocker | D2 ag | PINK1 modulator | CtBP-E1A blk | TRPML1 agonist
COc1cc(/C=N/NC(=O)c2ccc(CN3c4cccc5cccc(c45)S3(=O)=O)cc2)cc(OC)c1O | 13.0 | 15.1 | 7.5 | 6.0% | · | -0.4
CCSC1(SCC)N=C(N)C2(C#N)C(c3ccccc3)NC3=C(CCC3)C12C#N (stereo not given) | 4.1 | -13.3 | -0.3 | 0.9% | 1.7 | 0.5
CN1C(=O)NC(NS(=O)(=O)c2ccc(N)cc2)(C(F)(F)F)C1=O (stereo not given) | 8.2 | 2.2 | 1.5 | 0.6% | · | -0.3
CCOc1ccc(C(=S)N2CCOCC2)cc1OCC | 0.9 | 16.8 | -2.3 | 4.0%[38.3 µM] | 6.2 | -0.5
COC(=O)c1cc2n(n1)CCN(Cc1ccc(F)cc1)C2=O | 6.4 | -2.0 | -2.9 | -1.8% | 4.3 | 0.0
CCCOc1nc(C)cc(COC)c1C(N)=O | -6.5 | -15.2 | -0.6 | 2.5% | -11.0 | -0.1
Cc1nc(C(=O)Nc2ccccc2Cl)cc2c1[nH]c1ccccc12 | 3.7 | -11.3 | -2.3 | -0.5% | 7.8 | -0.2
CCc1ccccc1NS(=O)(=O)c1ccc2oc(=O)c3ncn(C)c3c2c1 | · | -2.7 | · | 0.0% | · | 0.1
O=C(c1ccccc1)N1CCN(C(=O)c2cc3nc(-c4ccccc4)cc(C(F)(F)F)n3n2)CC1 | -5.1 | -9.4 | 1.4 | 0.9% | 1.8 | 2.0
CCOC(=O)c1cc(-c2cc3ccccc3o2)n[nH]1 | 2.4 | -3.6 | 3.1 | 0.2% | -0.3 | 0.6
Cc1cccc(C)c1C(O)c1ncc(-c2cccc(F)c2)[nH]1 (stereo not given) | -6.9 | 25.6 | -1.1 | 0.0% | 0.5 | -0.1
Cc1onc(-c2ccccc2)c1C(=O)Nc1nncs1 | 1.1 | -4.3 | -2.0 | -0.9% | -17.5 | 1.9
O=C(c1ccccc1)N1CCN(c2ccc(N3CCOCC3)nn2)CC1 | 3.9 | 9.6 | -6.3 | -1.0% | 2.2 | -0.1
CC(NC(=O)C(=O)c1cn(CC(=O)N2CCOCC2)c2ccccc12)c1ccccc1 (stereo not given) | -1.7 | 1.2 | -2.4 | -1.3% | 8.0 | 1.5
O=C(Cn1c(NCCO)nc2ccccc21)c1ccccc1 | -12.2 | 7.2 | -5.3 | 1.1% | · | 0.4
CCOC(=O)C1=C(CNCc2ccccc2Cl)NC(=O)NC1c1cccc([N+](=O)[O-])c1 (stereo not given) | -16.3 | 3.4 | 0.4 | 1.3% | -9.6 | 0.6
CCc1ccc(C(=O)c2cn(Cc3ccc(F)cc3)c3cc(OC)c(OC)cc3c2=O)cc1 | · | 0.1 | · | -0.7% | · | 1.0
CCCCN(CC)C(=O)CSc1nc2ccccc2c(=O)n1Cc1ccco1 | · | 52.3 | · | ? | · | 4.4
CCCc1c(NC(=O)Nc2ccc(F)cc2)cnn1-c1ccc(Cl)cc1 | 4.9 | -4.9 | 1.4 | ? | -14.1 | -0.3
N#CCC(=O)NCC1(c2ccccc2)CCCC1 | 10.9 | 9.1 | 0.9 | -2.9% | 7.4 | 0.0
CN(C)CCNC(=O)/C(=C/c1ccc(-c2ccc(Cl)cc2)o1)NC(=O)c1ccccc1 | -4.9 | -11.5 | -1.2 | -1.6% | -6.9 | 0.1
Cc1ccc(C(CC(=O)O)NC(=O)c2ccc(S(=O)(=O)N3CC(C)OC(C)C3)cc2)cc1 (stereo not given) | -1.5 | -5.2 | -5.3 | -0.6% | 7.7 | -0.2
COc1cc(S(=O)(=O)NCC2CCCO2)ccc1Br (stereo not given) | 4.2 | 11.1 | -0.6 | 1.7%[38.3 µM] | 2.0 | -0.2
Cc1cnc2c3c(cc(Cl)c2c1)-c1ccccc1S(=O)(=O)N3 | · | -26.5 | · | 11.6% | · | 0.9
CSc1ccccc1NC(=O)c1ccc2c(c1)CCN2S(C)(=O)=O | -3.1 | 12.4 | -4.0 | 2.5% | 5.4 | 1.2
Cc1cc(=O)[nH]c(SCC(=O)O)c1C#N | 6.8 | -14.3 | -0.2 | -1.1% | 5.3 | -1.0
CCCCCC(=O)N1C[C@@H](O)[C@H](n2cc(C3CC3)nn2)C[C@@H]1c1ccccc1 | -5.4 | 0.6 | -0.2 | 1.7% | 6.7 | -0.5

Bioassay records: PubChem BioAssay, National Center for Advancing Translational Sciences (NCATS)
